VDR inh: inhibitors of human vitamin D receptor | hit rate 0.93% among 400,000 | P11473 | VDR-SRC2-3 peptide fluorescence polarization, 2 h | Potency, µM, without a hit: max response, negative = inhibition, actives largely listed as inhibitors; active = well fitted inhibition curve with a large enough effect; inconclusive = small, poorly fitted or top-dose-only effect, or another doubt; inactive = no such curve, though single readings can be large or run the other way; also: series mostly up to about 120 µM
Target sequence (P11473 whole entry, looked up): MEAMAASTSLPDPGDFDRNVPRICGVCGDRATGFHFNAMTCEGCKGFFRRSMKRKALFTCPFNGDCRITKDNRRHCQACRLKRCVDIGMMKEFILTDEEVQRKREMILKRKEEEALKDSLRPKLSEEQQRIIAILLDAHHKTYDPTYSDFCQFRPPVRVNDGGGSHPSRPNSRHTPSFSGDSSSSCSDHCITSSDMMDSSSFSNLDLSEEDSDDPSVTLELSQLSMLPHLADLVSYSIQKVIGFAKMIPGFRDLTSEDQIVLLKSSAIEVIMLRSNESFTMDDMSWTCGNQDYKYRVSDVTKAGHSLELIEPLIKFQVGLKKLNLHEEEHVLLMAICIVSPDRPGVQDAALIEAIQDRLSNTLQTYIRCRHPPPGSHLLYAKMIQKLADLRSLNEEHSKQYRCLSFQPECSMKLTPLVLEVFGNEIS
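After 23 nl compound addition and a short centrifugation, plates sat for 2 hours at ambient temperature; polarization of fluorescence then indicated loss of VDR binding to peptide SRC2-3.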
The depositor's hits bear a star; ? = inconclusive; & = joins results of further samples. % is scaled to controls: 0 for no effect and ±100 for the full control effect; potency is read from the fitted curve at half-maximal effect. These rows are one share of the data. The share of hits here may be higher or lower than overall.

| canonical_smiles | VDR inh |
| --- | --- |
| Cc1ccc2onc(CNC(=O)Nc3cc(F)ccc3F)c2c1 | 4.0% |
| Cc1c(-c2ccccc2)c(P(=O)(N2CCOCC2)N2CCOCC2)c2ccccn12 | 5.6% |
| CC(C)NC(=O)c1cc2nc(-c3ccco3)cc(C(F)(F)F)n2n1 | -1.5% |
| Cc1ccc2[nH]c(C)c(/C=N/Nc3nc4ccccc4s3)c2c1 | -7.6% |
| Cc1sc2nc(NCCO)[nH]c(=O)c2c1C | -4.2% |
| CC1(NC(=O)C23CC4CC(CC(C4)C2)C3)CCS(=O)(=O)C1 (configuration not stated) | 3.0% |
| Cc1cc(C)n(CC(O)COc2ccc(Cl)cc2Cl)n1 (configuration not stated) | -4.2% |
| CCOC(=O)c1sc(NC(=O)CSc2nnnn2-c2ccc(C)cc2C)nc1C | -3.1% |

Three compounds from above, arranged by the value under VDR inh, largest number first:
molecule | VDR inh
Cc1c(-c2ccccc2)c(P(=O)(N2CCOCC2)N2CCOCC2)c2ccccn12 | 5.6%
CCOC(=O)c1sc(NC(=O)CSc2nnnn2-c2ccc(C)cc2C)nc1C | -3.1%
Cc1sc2nc(NCCO)[nH]c(=O)c2c1C | -4.2%

Other structures
| canonical_smiles | VDR inh |
| --- | --- |
| COc1cc(/C=N/NC(=S)NCC2CCCO2)cc(OC)c1OC (configuration not stated) | -3.3% |
| Cn1c(C2=C(O)CN(c3ccc4c(c3)OCCO4)C2=N)nc2ccccc21 | 2.8% |
| O=C(N/N=C/c1ccncc1)c1cc([N+](=O)[O-])cc([N+](=O)[O-])c1O | 3.4% |
| Cc1ccc(NC(=O)NC(=O)CN2C(=O)NC3(CCc4ccccc43)C2=O)c(C)c1 (configuration not stated) | -5.2% |
| CC(C)Oc1ccc(C(=O)Nc2nnc3n2CCS3)cc1 | 2.9% |
| O=C(COC(=O)c1ccc([N+](=O)[O-])o1)NCCc1ccccc1 | -1.7% |
| Cc1snc(SCC(=O)c2ccc(Cl)cc2)c1C#N | -25.3% |
| CC(OC(=O)CCCN1C(=O)c2ccccc2C1=O)C(=O)Nc1ncc(Cl)cc1Cl (configuration not stated) | 20.1% |
| COc1ccc(NC(=O)Nc2ccc3c(c2)C(=O)N([C@H](C)CO)C[C@H](C)[C@@H](CN(C)S(=O)(=O)c2cccs2)O3)cc1 | -2.6% |
| CCOc1cc(CNc2ccc(N3CCN(C(C)=O)CC3)cc2)cc(Br)c1OC | -24.4% |
| Nn1c(SCc2ccc(C(=O)O)cc2)nnc1-c1ccc(Cl)cc1Cl | 21.5% |
| C/C(O)=C(/C#N)c1nc2ccccc2[nH]1 | -10.1% |
| CC1CCN(C(=O)CSc2nc3ccccc3s2)CC1 | -7.3% |
| COc1ccc(NC(=O)CN(C)C2CCCCC2)cc1Cl | -14.5% |
| O=C(NN1C(=O)c2ccccc2NC12CCCCC2)c1ccccc1 | -15.5% |
| CNC(=O)CN1C(=O)COc2ccc(S(=O)(=O)N3CCC(C)CC3)cc21 | -7.8% |
| COc1ccccc1OCC(=O)NNC(=O)CSC(=S)N1CCCC1 | -5.7% |
| Cn1c(=O)c2c(n3c4ccccc4nc13)NC(=O)CC2c1ccccc1F (configuration not stated) | 6.7% |
| CSC1=N/C(=C\c2ccc(C)cc2)C(=O)S1 | -9.1% |
| CCN(CC(=O)Nc1ccc(N2CCOCC2)cc1)C(=O)c1ccc(C(F)(F)F)cc1 | -9.0% |
| Nc1nc(SCn2nnc3ccccc3c2=O)n[nH]1 | -17.1% |
| Cn1cccc1-c1cc(C(=O)N/N=C/c2cc(Br)ccc2O)[nH]n1 | 13.1% |
| CCc1nn(CC(=O)NC2CC2)c(=O)c2cc3ccccc3n12 | 0.7% |
| CCN(CC)S(=O)(=O)c1cccc(C(=O)Nc2ccccc2C(=O)Nc2ccc(OC)cc2)c1 | 5.4% |
| CC(C)CN1CCCC2(CCN(C(=O)c3cnccn3)CC2)C1 | 0.2% |
| NC(=O)[C@@H]1CCCN1Cc1c(C(=O)N2CCN(C3CCCCC3)CC2)nc2ccccn12 | -6.3% |
| CCC(c1nnnn1Cc1ccco1)N1CCC(C(N)=O)CC1 (configuration not stated) | 11.6% |
| CN(CC(=O)Nc1cccc(F)c1)C(=O)CNC(=O)Cc1cccc2ccccc12 | 1.4% |
| Cc1ccc(C)c(S(=O)(=O)N2CCN(C(=O)Cc3ccccc3)CC2)c1 | 6.2% |
| COc1cccc(C2c3[nH]c4ccccc4c3CCN2Cc2cccc(C)n2)c1 (configuration not stated) | -5.8% |
| COC(=O)C(CC(=O)Nc1cc(C)ccc1C)Nc1ccccc1OC (configuration not stated) | -14.5% |
| COc1ccc(Cn2nnnc2C(c2ccccc2OC)N2CCC(C(N)=O)CC2)cc1 (configuration not stated) | 6.8% |
| Nc1ccccc1SC1CC(=O)N(c2ccc3c(c2)OCCO3)C1=O (configuration not stated) | -3.0% |
| O=C(Cc1ccc(-n2cccc2)cc1)NC1CCCCC1 | 5.8% |
| Cc1ccc(-n2nnnc2CNC(=O)c2ccc(Br)o2)cc1C | 7.7% |
| Cc1cccc(NC(=O)CN2C(=S)NC(C)(C)CC2C)c1C (configuration not stated) | -9.1% |
| CCN(CC)C(=O)c1ccc(Nc2nnc(C)c3ccccc23)cc1 | -0.7% |
| C=CC(=O)N1C/C=C\C(c2ccc(OC)cc2)N(Cc2ccc(F)cc2)C(=O)C1 (configuration not stated) | -9.4%&2.7% |
| Cc1onc(-c2ccccc2Cl)c1C(=O)NC(=S)Nc1ccc(C(C)C)cc1 | -11.7% |
| COc1ccc(C(=O)N/N=C2/SCC(=O)N2Cc2ccc3c(c2)OCO3)cc1OC | -1.7% |

Molecules above that have a CF3 group:
| canonical_smiles | VDR inh |
| --- | --- |
| CC(C)NC(=O)c1cc2nc(-c3ccco3)cc(C(F)(F)F)n2n1 | -1.5% |
| CCN(CC(=O)Nc1ccc(N2CCOCC2)cc1)C(=O)c1ccc(C(F)(F)F)cc1 | -9.0% |

(cont.)
| canonical_smiles | VDR inh |
| --- | --- |
| O=C(Nc1nc(-c2ccccc2)cs1)C1CCCN(S(=O)(=O)c2ccccc2)C1 (configuration not stated) | -1.5% |
| COc1cccc(C(=O)c2cn(CC(=O)Nc3cccc(C)c3C)c3nc(C)ccc3c2=O)c1 | 0.5% |
| COc1ccccc1C(CCNCc1ccc(N(C)C)cc1)c1ccc(OC(C)C)cc1 (configuration not stated) | -7.9% |
| O=C(O)c1ccc(Cl)c(NC(=O)C2CCCN2S(=O)(=O)c2cccc3nsnc23)c1 (configuration not stated) | -11.1% |
| CC1(c2ccccc2Cl)NC(=O)N(CC(=O)NCc2ccc3c(c2)OCO3)C1=O (configuration not stated) | -7.7% |
| CCOC(=O)c1ccc(-c2cccc(-c3cc(=O)oc4cc(OC)cc(OC)c34)c2)cc1 | -11.5%&-6.8% |
| COc1cccc(C(=O)N2CCN=C2SC)c1 | -9.7% |
| CC(NC(=O)C(=O)NCCC1=CCCCC1)c1ccccc1 (configuration not stated) | -6.9% |
| CC[C@]12c3[nH]c4cc(CCC(=O)N(C)C)ccc4c3CCN1C(=O)[C@@H](CC(=O)NCCN1CCOCC1)C[C@@H]2C(=O)N1CCN(C(=O)C2CC2)CC1 | 6.5% |
| CCOC(=O)c1cccc(NS(=O)(=O)c2cc(-c3cnc(C4CC4)o3)ccc2C)c1 | 12.0% |
| Cc1csc(NC(=O)CSc2ncnc3c2cnn3-c2ccccc2Cl)n1 | 4.6% |
| Cc1onc(-c2c(Cl)cccc2Cl)c1NC(=O)NN(C)C | -14.7% |
| Cc1ccc2oc(C(F)(F)C(F)F)cc(=O)c2c1 | -10.5% |
| O=C(C1=C[C@@H](c2ccc(C(F)(F)F)cc2)C[C@@H](OCc2ccc(CO)cc2)O1)N1CCN(Cc2ccccc2)CC1 | -25.0% |
| O=S(=O)(Nc1ccc2nc(-c3ccco3)[nH]c2c1)c1ccccc1 | 2.9% |
| Cc1cccc(C)c1NC(=O)C(c1cccs1)N(Cc1ccco1)C(=O)Cn1nnc2ccccc21 (configuration not stated) | 2.4% |
| CCSC1=C(C#N)C(c2ccccc2C)CC(=O)N1 (configuration not stated) | -4.6% |
| CCCc1cc(=O)oc2cc(OCc3ccc(OC)cc3)c(Cl)cc12 | 23.5% |
| CCC(NC(=O)CN1CCN(C(=O)c2cccs2)CC1)c1ccc(C)cc1 (configuration not stated) | -14.1% |
| O=C1NC(NS(=O)(=O)c2ccccc2)(C(F)(F)F)C(=O)N1c1cccc(Cl)c1 (configuration not stated) | -12.6% |
| CC(=O)CCS(=O)(=O)c1ccc(NC(C)=O)cc1 | -13.6% |
| CCN(c1ccccc1)C1(O)C(=O)c2ccccc2C1=O | 20.6% |
| Cc1cc(C)nc(NC(N)=S)n1 | 2.1% |
| COc1cc(OC)c(N(C)S(=O)(=O)c2cccc(C(=O)OCC(=O)c3c[nH]c4ccccc34)c2)cc1Cl | 18.9% |
| C=C(C)CNC(=O)CCc1nnc(Cc2cccc(C(F)(F)F)c2)o1 | -9.4% |
| COc1ccc(C/C(N)=N/OC(=O)C(c2ccccc2)c2ccccc2)cc1OC | -9.6% |
| CC(=O)Nc1ccc(S(=O)(=O)N(C)CC(=O)NC2CCCC(C)C2C)cc1 (configuration not stated) | 15.4% |
| CC12CCC(=O)N1C(C(=O)Nc1ccc(S(=O)(=O)N3CCCCC3)cc1)CS2 (configuration not stated) | -20.8% |
| CCOC(=O)/C=C/C(=O)N1CCN(C(=O)/C=C/C(=O)OCC)CC1 | 8.6% |
| Cc1nc2ccc(NC(=O)N3CCSCC3)cc2nc1C | 6.9% |
| Cc1cc(Nc2ccccc2)n(C(=O)c2ccc(N)cc2)n1 | 0.4% |
| Clc1ccc2[nH]c(-c3ccccc3)cc2c1 | -7.0% |

Exported field by field: 2 of the compounds above
COc1cccc(C(=O)c2cn(CC(=O)Nc3cccc(C)c3C)c3nc(C)ccc3c2=O)c1
  VDR inh: 0.5%

COc1ccccc1C(CCNCc1ccc(N(C)C)cc1)c1ccc(OC(C)C)cc1 (configuration not stated)
  VDR inh: -7.9%

(more compounds)
| canonical_smiles | VDR inh |
| --- | --- |
| CS(=O)(=O)N(CC(=O)Nc1ccccc1Sc1ccccc1)C1CCCCC1 | 2.1% |
| O=C(CN1C(=O)C2CC=C(Cl)CC2C1=O)NCc1ccccc1 (configuration not stated) | 1.1% |
| CCCNC(=O)Nc1nc2ccccc2s1 | 9.7% |
| Cc1cccc(-c2ccc3c(c2)C2CC3CCN2C)c1 (configuration not stated) | -5.9% |
| Cc1cc(NC(=O)CSc2ccc(-c3ccc(Br)cc3)nn2)no1 | -2.4% |
| CC(NC(=O)c1cnccn1)c1ccc(S(N)(=O)=O)cc1 (configuration not stated) | -21.8% |
| CN1C(=O)C2(C(C#N)=C(N)Oc3c2oc(CO)cc3=O)c2ccccc21 (configuration not stated) | -8.4% |
| O=c1c2ccccc2nc2n1C(CSc1ccc(Br)cc1)CN2 (configuration not stated) | -4.7% |
| N#CC(=C=[N-])c1nc2ccccc2nc1-[n+]1cccc(NC(=O)c2ccccc2)c1 | -13.5% |
| C(=C\c1nnc2c3ccccc3ncn12)/c1ccccc1 | -9.4% |
| COc1ccc(N(C)S(=O)(=O)c2cccc(C(=O)Nc3nc(C)c(C(C)=O)s3)c2)cc1 | 14.1% |
| COc1cccc(NC(=O)CN(C)S(=O)(=O)c2ccc3c(c2)CCC(=O)N3)c1 | 6.7% |
| Cc1ccccc1Nc1ncnc2c1cnn2-c1ccccc1 | -19.3% |
| COc1ccc2c(c1)C1CC(C)(NC(=O)C1S(=O)(=O)c1ccc(F)cc1)O2 (configuration not stated) | ? |
| Cc1cc(=O)oc2cc(OCC(=O)Nc3nnc(C4CC4)s3)ccc12 | 23.9% |
| O=C(CCSCc1cccc(Cl)c1)NCc1ccccc1Cl | 10.8% |
| CCCCn1c(N)c(N(CCOC)C(=O)CSCc2c(C)noc2C)c(=O)[nH]c1=O | 13.9% |
| Cc1cccnc1NC(=O)CCNS(=O)(=O)c1ccc2c(c1)c(=O)n(C)c(=O)n2C | -9.4% |
| CC(NC(=O)Nc1ccccc1)C(c1cccs1)N1CCN(c2ccccc2)CC1 (configuration not stated) | -4.9% |
| CCOC(=O)C1CCCN(CC(=O)Nc2ccc(C(=O)Nc3ccccc3OC)cc2)C1 (configuration not stated) | -5.0% |
| Cc1c(Nc2nc3ccccc3n3cnnc23)cccc1[N+](=O)[O-] | 22.9% |
| COc1ccc(/C=N/NC(=O)c2sc3nc(C)cc(C)c3c2N)cc1 | -3.6% |
| Cc1cc(C)n(-c2nc3c(c(=O)[nH]c(=O)n3C)n2Cc2cccc(Br)c2)n1 | 0.8% |
| COCCCNC(=O)c1ccccc1-c1cc(C)no1 | -2.3% |
| O=C(NCCOc1ccccc1F)C1CCC(=O)N(CCc2cccc(F)c2)C1 (configuration not stated) | -15.6% |
| CCOc1ccccc1NC(=O)CCc1nnc2ccc(NCc3ccco3)nn12 | -4.3% |
| Cc1ccc(-c2nn(CC(=O)NC3CCCCC3)c3c2cnc2ccccc23)cc1 | 4.0% |
| Cc1cc(CNC(=S)Nc2ccc(Br)cc2Cl)nn1C | -7.0% |
| CC(C(=O)O)N1c2cccc3cccc(c23)S1(=O)=O (configuration not stated) | 10.2% |
| COCCN1C(=O)C(CC(=O)Nc2ccc(C(C)=O)cc2)SC1=Nc1ccccc1 (configuration not stated) | 9.2%&2.1% |
| CCSc1ccccc1C(=O)Nc1ccc2c(c1)OCO2 | -11.3% |
| CCOC(=O)c1cnc2ccccc2c1Nc1cc(C(=O)O)ccc1C | 16.8% |
| COc1cccc(C(=O)Nc2ncc3c(n2)CC(c2ccc(OC)cc2OC)CC3=O)c1 (configuration not stated) | 8.0% |
| CCOC(=O)c1c(C)n(-c2ccc(C)cc2)c2ccc(OCC(O)CNCC3CCCO3)cc12 (configuration not stated) | -15.4% |
| CC(NC(=O)c1ccccc1C(=O)O)c1ccc(-n2ccnc2)cc1 (configuration not stated) | 12.2% |
| CCOC(=O)CSC1=NN2CCS(=O)(=O)N=C2S1 | 2.4% |
| CCOc1ccc(C(=O)NCCCCNC(=O)c2ccc(OCC)cc2)cc1 | -11.5% |
| COc1cccc(OCc2nc3ccccc3n2CCOc2ccccc2)c1 | -11.7% |

Assay outcomes from PubChem.
